# Source: PubChem
# Rango-impB inh = qHTS Assay for Inhibitors of Rango (Ran-regulated importin-beta cargo) - Importin beta complex formation. 340,000 compounds, 0.031% hits. Potency, µM (doses to about 92.2 µM), inactives show at the top dose inhibition of complex formation. AID 540263, 2011. Importin subunit beta-1 (Homo sapiens), Q14974. Rango CFP/YFP FRET sensor + importin beta, 45 min; active = rising FRET ratio curve, often small or poorly fitted; inconclusive = mostly compound fluorescence or quenching in the first reads; inactive = flat curves in all reads;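 note: potency is the fitted concentration of half-maximal effect; 0% = DMSO wells and 100% = buffer wells lacking importin beta; nearly all actives have a fitted effect of over 15% in size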
# Target sequence (Q14974 whole entry, looked up): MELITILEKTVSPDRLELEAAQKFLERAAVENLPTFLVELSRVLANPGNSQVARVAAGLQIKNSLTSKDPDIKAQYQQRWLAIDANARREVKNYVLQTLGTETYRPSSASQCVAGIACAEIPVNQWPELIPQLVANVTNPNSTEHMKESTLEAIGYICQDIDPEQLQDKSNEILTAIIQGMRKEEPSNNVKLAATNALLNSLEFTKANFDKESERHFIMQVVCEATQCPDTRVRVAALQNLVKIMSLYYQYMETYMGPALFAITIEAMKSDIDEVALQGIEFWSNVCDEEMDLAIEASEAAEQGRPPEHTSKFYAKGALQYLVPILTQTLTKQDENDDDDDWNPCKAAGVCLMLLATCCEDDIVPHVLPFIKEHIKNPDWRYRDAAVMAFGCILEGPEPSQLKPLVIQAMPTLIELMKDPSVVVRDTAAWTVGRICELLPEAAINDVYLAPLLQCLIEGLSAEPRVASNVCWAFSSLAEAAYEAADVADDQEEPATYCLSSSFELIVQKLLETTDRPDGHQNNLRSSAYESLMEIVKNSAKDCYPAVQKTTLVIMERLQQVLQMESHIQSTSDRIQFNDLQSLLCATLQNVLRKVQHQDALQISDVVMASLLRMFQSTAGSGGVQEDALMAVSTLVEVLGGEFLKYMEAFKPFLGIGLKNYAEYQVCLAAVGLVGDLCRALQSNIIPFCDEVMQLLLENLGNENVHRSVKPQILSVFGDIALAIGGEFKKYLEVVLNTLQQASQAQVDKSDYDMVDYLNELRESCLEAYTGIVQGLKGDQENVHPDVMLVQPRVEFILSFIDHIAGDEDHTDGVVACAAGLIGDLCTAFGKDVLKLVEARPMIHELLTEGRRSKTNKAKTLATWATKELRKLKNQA
#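 FRET biosensor Rango (snurportin 1 IBB between N-terminal EYFP and C-terminal Cerulean), 50 nM in PBS/1 mM DTT/0.02% Tween-20/0.1% BSA, preincubated 5 min RT with compound; 0.125 microM importin beta added, 45 min RT, CFP/YFP FRET ratio read.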
# Rango dissoc inh = qHTS Assay for Inhibitors of RanGTP induced Rango (Ran-regulated importin-beta cargo) - Importin beta complex dissociation. Potency, µM (titrated, usually from 46.1 µM), without a hit: top-dose activity change, negative = inhibition. 340,000 compounds, 0.071% hits. Snurportin-1 (Homo sapiens) + GTP-binding nuclear protein Ran (Homo sapiens) + Importin …. Biochemical FRET Rango-importin beta, RanGTP-induced dissociation; active means falling FRET ratio curve, often poorly fitted, with flat reads before Ran was added; inconclusive means other falling curves, or compound fluorescence or quenching; inactive means flat or rising ratio curve;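 note: potency is the fitted concentration of half-maximal effect; % of control where 0% means no effect; nearly all actives have a fitted effect of over 45% in size; -100% = wells without RanGTP and RCC1; the record marks most hits as doubtful in a second field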
#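 Compounds sat 5 min at room temperature with 0.1 uM Rango biosensor plus 0.25 uM importin beta, then FRET pre-read. RanGTP-RCC1 (0.6 uM Ran, 2mM GTP, 0.2 uM RCC1) added for 45 min, and the CFP/YFP post-read measured blocked complex dissociation.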
# GLA inh pH 4.5 = qHTS Assay for Inhibitors of Human alpha-Galactosidase at pH 4.5 | Alpha-galactosidase A (Homo sapiens), P06280 | purified enzyme, 4-MU-alpha-Gal fluorescence, pH 4.5 | activity change, negative = inhibition, % at 105 µM | 230,000 tested, under 10 active | AID 1467, 2008; inconclusive = small, poorly fitted or top-dose-only inhibition, or a rising curve; inactive = flat fitted curve, though single readings scatter; no compound was filed as active;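 note: 0% = full activity with enzyme and -100% = basal without enzyme; dose as in the result columns while the protocol names 77 µM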
# miR-21 reporter = qHTS Assay for Modulators of miRNAs and/orActivators of miR-21; HeLa miR-21 FLuc reporter, luciferase, 48 h; 340,000 tested, under 10 active; Potency, µM (doses to about 38.3 µM), for the others: top-dose reporter change, positive = more light; active = well fitted rising curve with a large enough effect; inconclusive = small, poorly fitted or top-dose-only effect; inactive = no such curve, though single readings can be large or run the other way;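 note: % of control where 0% means no effect; miR-21 action dims this reporter so a rising signal means less miR-21 action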
#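 Compounds were titrated across several concentrations (up to approximately 40 uM) and incubated 48 hours with HeLa miR-21-FLuc reporter cells (miR-21 target sequence downstream of FLuc, endogenous miR-21). Readout was firefly luciferase luminescence after lytic detection reagent.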
# Numbers without * were called inactive; u = inconclusive; x = no result given; [ ] = remark or other dose. Only part of the results is shown; rates above refer to the full screens.
SMILES,Rango-impB inh,Rango dissoc inh,GLA inh pH 4.5,miR-21 reporter
S=C(Nc1ccc(Cl)cc1Cl)N1CCCC1,3.8%,-12%,x,-47%
CC1=C(C#N)C(c2ccccc2)C2=C(N1)c1ccccc1C2=O (stereo not given),0.1%,4%,-6,16%
CCCOc1ccc(/C(O)=C2\C(=O)C(=O)N(CCCN(C)C)C23C(=O)N(C)c2ccccc23)cc1 (stereo not given),x,x,0,-6%
COc1ccc(NC(=O)c2cccc(N3C(=O)C4C5C=CC(C5)C4C3=O)c2)cc1Cl (stereo not given),0.4%,-4%,x,0%
CC(=O)CCc1ccc(OCCCCN2CCC(Cc3ccccc3)CC2)cc1,-1.6%,-9%,-18,4%
COc1ccc(NC(=S)N(CCC(C)C)C2CCN(C(C)C)CC2)cc1,-0.8%,7%,x,0%
COc1cccc(OCc2nnc(SCC(=O)N3c4ccccc4Sc4ccc(Cl)cc43)o2)c1,-4.1%,-5%,-4,-1%
O=C(Nc1ccc(C(F)(F)F)cc1)c1cnc(N2CCN(c3ccccn3)CC2)c2ccccc12,-0.5%,-9%,9,2%
Cc1noc(C)c1COC(=O)c1cnc(Cl)c(Cl)c1,11%,0%,-4,9%
Cn1c(=O)oc2cc(S(=O)(=O)NCCC(=O)N3CCc4ccccc43)ccc21,4.7%,-2%,-13,-3%
CCC(C)NC(=O)CSc1nnc(-c2ccc(C(C)(C)C)cc2)n1C (stereo not given),0.6%,2%,-18,-2%
CCCOC(=O)CCNc1n[nH]c(=O)[nH]c1=O,1.1%,-3%,0,0%
O=C(/C=C/c1ccccc1[N+](=O)[O-])NNC(=O)c1ccncc1,-2.9%,-19%,x,x
Cc1ccc2nc(SCC(=O)Nc3cccc(S(=O)(=O)N(C)C)c3)[nH]c2c1,-1.3%,4%,-7,-1%
Cc1ccc(C)c(NS(=O)(=O)c2csc(C(N)=O)c2)c1,5.5%,0%,x,2%
CNc1c(C(=O)O)ccc2c1C(=O)c1ccccc1C2=O,-8.7%,3%,0,0%
Cc1ccccc1NC(=O)Cn1nc(C)n2cccc2c1=O,u,u,x,-1%
COC(=O)c1ccccc1N=Nc1c(C)noc1C,-1.4%,9%,11,-1%
CCc1ccccc1NC(=O)CSc1nc2[nH]c(=O)cc(O)c2s1,0.8%,6%,x,7%
COc1ccc(-c2nnc(CSc3nnc(-c4ccncc4)n3C3CCCCC3)o2)cc1OC,-2.0%,8%,0,-9%
COc1ccc(-n2nc3ccccc3n2)cc1,2.0%,1%,-4,-23%
Cc1cc(NC(=O)CN2CCC(O)(c3cccc(F)c3)CC2)no1,u,0%,2,-5%
Cc1ccc(NC(=O)CN(C)C(=O)c2cc3c(s2)CCCCC3)cc1,-2.2%,-3%,x,x
S=C(Nc1ccc(Br)cc1)NC1CCN(Cc2ccccc2)CC1,3.1%,-13%,x,25%
CCN(CC)C(=O)Cn1cc(C(=O)C2CC2)c2ccccc21,-3.1%,-18%,5,-1%
O=C(NCc1ccc(F)cc1)c1ccc(Br)o1,0.3%,6%,2,-4%
O=C(Nc1cccc(Cl)c1)N(CCCN1CCOCC1)Cc1ccccc1F,-6.4%,16%,-3,-7%
O=C(CSc1nnnn1-c1ccc(C(=O)O)cc1)NC1CC1,-3.2%,1%,x,-3%
CC1CCN(C(=O)Cn2c(=O)n(Cc3ccco3)c(=O)c3sccc32)CC1,-1.0%,-1%,x,12%
CC1(C)Cc2nc(Cl)c(C(N)=O)cc2CO1,-1.1%,2%,-1,1%
Cc1ccc(C)c(N(C)S(=O)(=O)c2cccc3nsnc23)c1,2.1%,-2%,14,-15%
C=CCOc1ccccc1CN1CCC(Cc2ccccc2)CC1,-0.3%,3%,x,23%
Cc1ccc(S(=O)(=O)/N=C(/c2ccc(F)cc2)N2CCOCC2)cc1,-2.0%,-1%,x,-5%
CCOc1ccc(S(=O)(=O)N2Cc3ccccc3CC2C(=O)O)cc1 (stereo not given),-3.4%,-5%,4,1%
CC1=C(C)CC(C(=O)Nc2nccs2)C(C(=O)O)C1 (stereo not given),6.9%,4%,x,1%
COc1cccc2c1C(=O)C=C(C)C2=O,8.3%,31%,-9,u
Nc1c2c(nn1-c1ccc(C(=O)O)cc1)CNC2,-1.4%,-8%,x,-4%
COc1ccc(CNC(=O)COC(=O)c2ccc(F)c(S(=O)(=O)N3CCCCC3)c2)cc1OC,-2.6%,38%,-3,-1%
Cc1cc(C)nc(SCC(=O)NCC2COc3ccccc3O2)n1 (stereo not given),-2.9%,14%,x,x
Cc1ccc(CN2CC(C(=O)N3CCN(S(=O)(=O)c4cccc(F)c4)CC3)CC2=O)cc1 (stereo not given),7.3%,4%,x,x
CN(C(=O)c1ccc(NC(=O)Cc2cccc(NC(=O)C3CCCN(C(=O)C4CCCCC4)C3)c2)cc1)C1CCCC1 (stereo not given),-2.1%,-10%,x,x
CN(CC(=O)NCc1ccco1)S(=O)(=O)c1cccc2cccnc12,-3.4%,33%,3,-1%
CC(=O)c1ccc(OCC(O)CN2CCN(S(=O)(=O)c3c(C)c(C)cc(C)c3C)CC2)cc1 (stereo not given),0.4%,-9%,x,6%
O=S(=O)(c1ccccc1)c1nc(NC2CC2)sc1Cl,-1.4%,-6%,-11,6%
O=C1CC(NCC2CCCO2)C(=O)N1c1ccc(F)cc1 (stereo not given),1.1%,17%,2,0%
CC(CCCCC(=O)Nc1ccc(C(F)(F)F)cc1)NCCc1cnc[nH]1 (stereo not given),x,x,8,2%
FC(F)(F)c1ccc(/C=N/N2CCN(Cc3ccccc3)CC2)cc1,-5.8%,35%,-7,0%
CN(CC(=O)NCCc1ccc(F)cc1)Cc1cccs1,0.6%,-5%,9,-27%
CC1CCC(NC(=O)CSc2nncn2C)CC1 (stereo not given),3.2%,13%,x,x
O=C(C[C@@H]1C/C=C\C[C@H](Cc2ccc(F)cc2)C(=O)OCCNC1=O)N[C@H](CO)Cc1ccccc1,4.0%,6%,x,x
CCOP(=O)(c1ccccc1)c1nc(-c2ccccc2C)oc1N1CCCCC1 (stereo not given),1.5%,-6%,-7,-4%
CC(C)CN(C(=O)Cn1c(=O)cnc2ccccc21)C1CCS(=O)(=O)C1 (stereo not given),7.2%,-10%,x,x
CCN(CC)c1ccc(C2C(C(=O)OC)=C(C)NC(C)=C2C(=O)OC)cc1,u,-2%,1,-2%
CCOC(=O)/C=C1\Nc2ccccc2OC1=O,-4.1%,6%,3,-12%
Cn1c(=O)c2c(SCC(=O)N3CCOCC3)nc(-c3ccccc3F)nc2n(C)c1=O,-2.0%,-4%,x,0%
CSc1ccc(Cl)c(C(=O)Nc2nccs2)c1,0.1%,-4%,9,13%
O=C(NC1CCCC1)C1CCCN(S(=O)(=O)c2ccc(F)cc2)C1 (stereo not given),1.2%,-13%,x,-2%
COc1ccc(/C=N/n2c(=O)[nH]c3c([nH]c4ccc(Cl)cc43)c2=O)cc1CN1CCCCC1,-1.8%,12%,24,4%
CC(OC(=O)c1snc(C(=O)NC2CCCCC2)c1N)C(=O)NC(C)(C)C (stereo not given),-1.9%,-4%,4,18%
CNC[C@H]1Oc2c(NC(=O)C3CCCCC3)cccc2C(=O)N([C@H](C)CO)C[C@@H]1C,6.4%,-9%,x,x

# (next part)
SMILES,Rango-impB inh,Rango dissoc inh,GLA inh pH 4.5,miR-21 reporter
CC(=O)Nc1ccc(NC(=O)COc2ccc(-c3ccccc3)cc2)cc1,-0.5%,23%,x,-22%
CC1C2NC(=O)N(Cc3ccccc3)C1(C)Oc1ccccc12 (stereo not given),-0.6%,-2%,1[21.1 µM],4%
CCOC(=O)c1cc2c(=O)n3ccccc3nc2n(Cc2ccco2)c1=NC(=O)c1ccc(OC)cc1OC,u,u,6,1%
CC1CCCN(CCC(=O)Nc2ccc(Br)cc2)C1 (stereo not given),3.9%,21%,-6,-14%
CC1(C)C(=O)Nc2ccccc2N1C(=O)CN1C(=O)NC(CCc2ccccc2)C1=O (stereo not given),-3.1%,10%,1,0%
COc1cc(OC)c(CNC2CCCCCC2)cc1Br,2.3%,2%,-2,8%
Cc1ccc2c(c1)N(CC(=O)NC1CCCC1)C(=O)C(C)O2 (stereo not given),-1.1%,5%,x,-3%
CN(C(=O)CSc1nnc(-c2ccc(Cl)cc2)n1CC1CCCO1)C1CCS(=O)(=O)C1 (stereo not given),-0.4%,14%,-5,-3%
CCOC(=O)c1cccc(NC(=O)CNS(=O)(=O)c2cccs2)c1,-0.8%,-6%,0,-21%
COC(=O)NC1CCC(NC(=O)OC)CC1 (stereo not given),0.6%,-4%,-4,5%
COc1ccc(-n2nc3c(c2NC(=O)C(C)Oc2ccccc2)CS(=O)C3)cc1 (stereo not given),0.5%,0%,x,-7%
Cc1cccc(NC(=O)CSc2nnc(-c3ccncc3)n2CC2CCCO2)c1 (stereo not given),4.6%,-5%,x,1%
Cc1cc(C)c(C)c(S(=O)(=O)N2CCC(C(=O)Nc3ccncc3)CC2)c1C,1.1%,8%,x,28%
Cc1ccc(S(=O)(=O)NC2=C(N3CCN(Cc4ccccc4)CC3)C(=O)c3ccccc3C2=O)cc1,-2.4%,3%,7,-5%
O=S(=O)(Cc1ccccc1)NCC1CCCO1 (stereo not given),-0.5%,-1%,-5,0%
CCC(NS(=O)(=O)c1ccc2c(c1)Cc1cc(S(=O)(=O)NC(CC)C(=O)O)ccc1-2)C(=O)O (stereo not given),-0.1%,11%,x,1%
Cc1cc(OCC(=O)NCCc2ccc(S(N)(=O)=O)cc2)c2c(C)c(C)c(=O)oc2c1,-2.5%,0%,x,-2%
O=C(CN1C(=O)COc2ccc(Cl)cc21)Nc1ccccn1,8.5%,1%,x,1%
O=C(COc1ccc(F)cc1)N/N=C/c1cccc2cccnc12,-0.8%,-6%,x,x
CSCC(=O)N1CCCC(CNC(=O)c2ccc(-c3ccccc3)cc2)C1 (stereo not given),1.1%,1%,-12,1%
NS(=O)(=O)c1ccc(CCNS(=O)(=O)c2ccc3c(c2)NC(=O)CO3)cc1,-0.7%,-1%,x,1%
CCN(CC)C(=O)Cn1nc(C)c2ccccc2c1=O,-1.4%,-2%,12,0%
CCc1nnc(NS(=O)(=O)c2ccc(NC(=S)Nc3ccc(F)cc3)cc2)s1,u,-3%,-2,0%

# Compounds listed so far with an aryl methoxy group:
SMILES,Rango-impB inh,Rango dissoc inh,GLA inh pH 4.5,miR-21 reporter
COc1ccc(NC(=O)c2cccc(N3C(=O)C4C5C=CC(C5)C4C3=O)c2)cc1Cl (stereo not given),0.4%,-4%,x,0%
COc1ccc(NC(=S)N(CCC(C)C)C2CCN(C(C)C)CC2)cc1,-0.8%,7%,x,0%
COc1cccc(OCc2nnc(SCC(=O)N3c4ccccc4Sc4ccc(Cl)cc43)o2)c1,-4.1%,-5%,-4,-1%
COc1ccc(-c2nnc(CSc3nnc(-c4ccncc4)n3C3CCCCC3)o2)cc1OC,-2.0%,8%,0,-9%
COc1ccc(-n2nc3ccccc3n2)cc1,2.0%,1%,-4,-23%
COc1cccc2c1C(=O)C=C(C)C2=O,8.3%,31%,-9,u
COc1ccc(CNC(=O)COC(=O)c2ccc(F)c(S(=O)(=O)N3CCCCC3)c2)cc1OC,-2.6%,38%,-3,-1%
COc1ccc(/C=N/n2c(=O)[nH]c3c([nH]c4ccc(Cl)cc43)c2=O)cc1CN1CCCCC1,-1.8%,12%,24,4%
CCOC(=O)c1cc2c(=O)n3ccccc3nc2n(Cc2ccco2)c1=NC(=O)c1ccc(OC)cc1OC,u,u,6,1%
COc1cc(OC)c(CNC2CCCCCC2)cc1Br,2.3%,2%,-2,8%
COc1ccc(-n2nc3c(c2NC(=O)C(C)Oc2ccccc2)CS(=O)C3)cc1 (stereo not given),0.5%,0%,x,-7%
